Compound activity: PubChem BioAssay, several laboratories
Vif TR-FRET: inhibitors of Vif binding to APOBEC3G peptide, primary screen, biochemical, TR-FRET, GST-Vif 1-94, biotin-A3G peptide, dose response retest (AID 1117319). TR-FRET GST-Vif / biotin-A3G peptide binding; higher % means a stronger effect; test concentration not given here; strong numbers were not always called active. hit rate 0.57% among 260,000. inhibition, %; hits with a dose series show IC50 in µM;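 active = above the screen mean plus three standard deviations and confirmed in dose response; inconclusive = results disagree or hit not tested in dose response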;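 also: Vif residues 1-94 fused to GST binding biotinylated APOBEC3G peptide 110-148; 0% = full assay without inhibitor and 100% = GST in place of GST-Vif; retest series ran down from 100 µM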
Bfl-1 A1 inh: inhibitors of the anti-apoptotic protein A1, read as caspase activation; MEF A1-2A-BIM cells, Caspase-Glo 3/7 luminescence, 3 h; percent of clofoctol response, vehicle zero; caspase activation, % (test concentration not listed); hit rate 0.066% among 330,000;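 active = over half of replicate activation scores above 10%, or exactly half above 10 with the replicate mean above 10; inconclusive = replicate mean below 10 yet half the replicates above 10; inactive = over half of replicates below 10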;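 also: wells of about 30 µL received 50 nL stock; many hits fall short of the cut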
Ecoli growth: inhibitors of Escherichia coli growth; OD600 absorbance (concentration not given with the values); AID 1053175; OD600, 23 h; active compounds read low; hit rate 0.21% among 330,000;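 active = OD600 absorbance below the run mean of sample wells minus 3.6 SD, in any replicate, cut at about 0.56 in these data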;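 also: stock transfer was 300 nL into about 60 µL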
UCH37 inh: human UCH37 deubiquitinating enzyme inhibition; hit rate 0.33% among 330,000; inhibition, % (no concentration beside the values); purified proteasome/UCH37, Ub-AMC cleavage fluorescence; AID 588478;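 active = mean of two replicates above 20%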;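 also: 0% = compound-free wells with enzyme and 100% = wells lacking proteasome; stock transfer was 100 nL into about 20 µL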
Target sequence (Q9Y5K5 whole entry, looked up): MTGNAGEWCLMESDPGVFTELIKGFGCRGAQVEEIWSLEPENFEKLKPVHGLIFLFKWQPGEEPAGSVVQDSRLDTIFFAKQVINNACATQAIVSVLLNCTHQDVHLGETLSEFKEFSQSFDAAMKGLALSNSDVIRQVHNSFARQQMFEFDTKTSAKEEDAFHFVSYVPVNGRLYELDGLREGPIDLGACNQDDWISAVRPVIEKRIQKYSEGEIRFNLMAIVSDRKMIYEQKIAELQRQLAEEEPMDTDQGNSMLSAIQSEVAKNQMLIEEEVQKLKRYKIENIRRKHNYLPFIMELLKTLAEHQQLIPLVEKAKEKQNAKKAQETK
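System: Proteasome-associated human UCH37 deubiquitinase; Input: 0.15 nM proteasome in added enzyme buffer; Also added: Ub-AMC substrate from 1 µM stock; Incubation: 30 min compound-proteasome preincubation then 25 min substrate reaction, room temperature; Detection: fluorescence, ex 355 nm, em 460 nm; Read-out: % inhibition of Ub-AMC cleavage fluorescence; Benchmarks: no-proteasome and no-compound wells.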
HNF4A DNA FP: change in binding of human HNF4 alpha to DNA; P41235; HNF4a-FITC DNA binding, fluorescence polarization, 1 h; activity change, % at 10 µM; hit rate 0.3% among 360,000; AID 1224865; in the data active = activity change above about 30%, passing the limit was not always enough;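 also: controls were the assay level and a saturating level of protein; the project sought stronger binding though the title names inhibitors; some compounds called inactive have numbers as strong as hits; positive values seem to mean higher polarization but the record does not say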
LANA-H2B inh: blocks KSHV LANA binding to histone H2A/H2B; Q9QR71; cell-free LANA-H2A/H2B peptide, fluorescence polarization; inhibition, % (test concentration not listed); hit rate 0.6% among 320,000; AID 2629; in the data active = inhibition mostly above about 10%, no sharp cut-off; inactive = mostly below about 6.7%;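 also: stock transfer was 7.5 nL into about 10 µL; 0% = median of vehicle wells and 100% = median of positive control wells; one replicate is shown; the record names a cut of 25% in any replicate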
B2AR ag: human beta-2 adrenergic receptor agonism by FAP; Am2.2-beta2AR cells, FAP receptor internalization, flow cytometry; reference of the scale not given here; response, % (test concentration not listed); hit rate 0.43% among 340,000; AID 504454;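 active = response above a set limit, near 3 SD of response in nonfluorescent compounds, cut at about 42% in these data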;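 also: stock transfer was 100 nL into about 11 µL; a reference agonist was the positive control; negative values mostly stem from fluorescent compounds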
Target sequence (P07550 whole entry, looked up): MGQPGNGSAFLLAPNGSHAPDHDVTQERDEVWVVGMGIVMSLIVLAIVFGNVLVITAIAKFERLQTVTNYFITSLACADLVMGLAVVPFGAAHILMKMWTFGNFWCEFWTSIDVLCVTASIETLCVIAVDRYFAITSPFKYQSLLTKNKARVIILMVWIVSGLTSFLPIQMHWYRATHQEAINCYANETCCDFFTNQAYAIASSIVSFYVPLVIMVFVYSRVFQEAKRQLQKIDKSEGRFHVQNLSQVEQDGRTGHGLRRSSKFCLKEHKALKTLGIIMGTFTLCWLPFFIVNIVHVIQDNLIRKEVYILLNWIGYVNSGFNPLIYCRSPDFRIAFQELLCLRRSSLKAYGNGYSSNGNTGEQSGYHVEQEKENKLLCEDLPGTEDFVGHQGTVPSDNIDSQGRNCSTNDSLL
An asterisk follows results filed as active.

Screening COC(=O)C1CC2=C(CCCC2=O)N(Cc2ccccc2)C1=O (stereo unspecified) returned Vif TR-FRET 2%, Ecoli growth 0.69, UCH37 inh 0.9, HNF4A DNA FP 2.6 and B2AR ag 14.
`COC(=O)c1c(O)ccc(Oc2ccccc2)c1C(=O)OC` gave Vif TR-FRET 4%, Bfl-1 A1 inh 0.8, Ecoli growth 0.68, UCH37 inh -5.4, HNF4A DNA FP -3.1, LANA-H2B inh -3.2 and B2AR ag -1.
Screening O=C1CC(N2CCN(CCc3ccccn3)CC2)C(=O)N1c1ccc(Cl)cc1 (stereo unspecified) returned Vif TR-FRET -6%, Bfl-1 A1 inh 2.2, Ecoli growth 0.72, UCH37 inh 0.5, HNF4A DNA FP 3.2, LANA-H2B inh 3.5 and B2AR ag 2.
COc1ccc(S(=O)(=O)Nc2nc3ccccc3s2)cc1OC was read as Vif TR-FRET -2%, Bfl-1 A1 inh -0.1, Ecoli growth 0.7, UCH37 inh 1.8, HNF4A DNA FP -2.6, LANA-H2B inh -2.8 and B2AR ag 3.
For COc1cccc(NC(=O)CN(C)C(=O)c2cn(-c3ccccc3)nc2-c2cccnc2)c1 the results were Vif TR-FRET -2%, Bfl-1 A1 inh 0.4, Ecoli growth 0.68, UCH37 inh 0.8, HNF4A DNA FP -0.1, LANA-H2B inh -0.9 and B2AR ag 1.
Screening CC1=C(C(=O)OCc2ccccc2)C(c2ccco2)n2ncnc2N1 (stereo unspecified) returned Vif TR-FRET 1%, Bfl-1 A1 inh -0.6, Ecoli growth 0.76, UCH37 inh 1.5, HNF4A DNA FP -0.8, LANA-H2B inh -3.5 and B2AR ag -1.
Cc1ccccc1S(=O)(=O)Cc1ccc(C(=O)NCCc2ccccc2)o1 was read as Vif TR-FRET -3%, Bfl-1 A1 inh -0.1, Ecoli growth 0.67, UCH37 inh -1.0, HNF4A DNA FP -0.7, LANA-H2B inh -3.1 and B2AR ag -4.
For COc1ccc(OC)c(S(=O)(=O)N2CCCCC2C(=O)O)c1 (stereo unspecified) the results were Vif TR-FRET inconclusive, Bfl-1 A1 inh -0.3, Ecoli growth 0.7, UCH37 inh 6.3, HNF4A DNA FP -2.5, LANA-H2B inh 1.1 and B2AR ag 3.
`COc1cccc(CC2(CO)CCN(Cc3cnc(N4CCOCC4)s3)CC2)c1` gave Vif TR-FRET 5%, Bfl-1 A1 inh 0.8, Ecoli growth 0.64, UCH37 inh 1.4, HNF4A DNA FP 2.2, LANA-H2B inh -1.2 and B2AR ag -3.
Screening CNC(=S)N(Cc1ccc(OC)cc1)Cc1cc2ccc(C)cc2[nH]c1=O returned Vif TR-FRET -49%, Bfl-1 A1 inh 0.0, Ecoli growth 0.71, UCH37 inh 4.2, HNF4A DNA FP -1.1, LANA-H2B inh 3.0 and B2AR ag -6.
Screening CCCCN1c2ccccc2N(CCCO)c2cc(C)nnc21 returned Vif TR-FRET -7%, Bfl-1 A1 inh 1.5, Ecoli growth 0.72, UCH37 inh 2.6, HNF4A DNA FP -0.3, LANA-H2B inh -0.8 and B2AR ag 0.
O=C(c1ccccc1)N1CCN(C2C3CC4CC(C3)CC2C4)CC1 (stereo unspecified) was read as Vif TR-FRET 2%, Bfl-1 A1 inh -0.3, Ecoli growth 0.67, UCH37 inh 4.9, HNF4A DNA FP -3.8, LANA-H2B inh -2.6 and B2AR ag 9.
Screening COc1cccc(C(=O)Nc2nc3c(c(=O)[nH]2)CCCC3)c1 returned Vif TR-FRET 13%, Bfl-1 A1 inh -1.2, Ecoli growth 0.71, UCH37 inh -0.6, HNF4A DNA FP 1.2, LANA-H2B inh 4.4 and B2AR ag -12.
`COc1cccc(C(=O)NNC2=C(C(=O)C(F)(F)F)CCC2)c1` gave Vif TR-FRET 13%, Bfl-1 A1 inh -0.7, Ecoli growth 0.62, UCH37 inh 9.0, HNF4A DNA FP -2.0, LANA-H2B inh -1.3 and B2AR ag 6.
For COc1ccc(NC(=O)N(C)C[C@H]2Oc3ccc(NS(=O)(=O)c4ccc(OC)cc4)cc3C(=O)N([C@H](C)CO)C[C@@H]2C)cc1 the results were Bfl-1 A1 inh -0.6, Ecoli growth 0.79, UCH37 inh -1.0, HNF4A DNA FP 1.7, LANA-H2B inh -3.0 and B2AR ag -5.
COc1cc(/C=N/NC(=O)c2cc(-c3c(C)nn(-c4ccccc4)c3C)n[nH]2)ccc1O was read as Vif TR-FRET 17%, Bfl-1 A1 inh 0.2, HNF4A DNA FP -1.4, LANA-H2B inh -5.6 and B2AR ag 12.
CCCN(CCO)Cc1cccc(Oc2ccccc2)c1 was read as Vif TR-FRET 5%, Bfl-1 A1 inh 0.6, Ecoli growth 0.73, UCH37 inh 4.7, HNF4A DNA FP -2.2, LANA-H2B inh -3.9 and B2AR ag -2.
Screening O=C(Nc1cccc2ccccc12)OC1C=CS(=O)(=O)C1 (stereo unspecified) returned Vif TR-FRET 32%, Bfl-1 A1 inh 1.4, Ecoli growth 0.74, UCH37 inh 6.2, HNF4A DNA FP 4.5, LANA-H2B inh -0.6 and B2AR ag 1.
For COc1ccc(Cl)cc1Nc1nc(NCCO)nc(N2CCCC2)n1 the results were Vif TR-FRET -12%, Bfl-1 A1 inh -0.1, Ecoli growth 0.74, UCH37 inh 1.4, HNF4A DNA FP 1.8, LANA-H2B inh -1.6 and B2AR ag 31.
For NC(=O)c1ccc[n+]([C@H]2O[C@@H](COP(=O)([O-])OP(=O)(O)OC[C@H]3O[C@@H](n4cnc5c(N)ncnc54)[C@H](O)[C@@H]3O)[C@H](O)[C@@H]2O)c1 the results were Bfl-1 A1 inh -1.1, UCH37 inh -1.1, HNF4A DNA FP -9.7, LANA-H2B inh -2.9 and B2AR ag -4.
COc1ccc(Oc2nc3ccccc3nc2C(F)(F)F)cc1 was read as Vif TR-FRET 31%, Bfl-1 A1 inh 1.5, Ecoli growth 0.69, UCH37 inh 1.0, HNF4A DNA FP 0.0, LANA-H2B inh 11 and B2AR ag -6.
For COc1cc(NC(=O)c2ccnn2C)c(OC)cc1Cl the results were Vif TR-FRET -6%, Bfl-1 A1 inh 0.7, Ecoli growth 0.66, UCH37 inh 1.7, HNF4A DNA FP 1.9, LANA-H2B inh -2.2 and B2AR ag -4.
`CCOC(=O)N/N=C/c1ccc(F)cc1F` gave Bfl-1 A1 inh -0.8, HNF4A DNA FP -1.4, LANA-H2B inh -1.5 and B2AR ag -1.
For CC(C)CC(NC(=O)C1CCC(C)CC1)C(=O)NCc1ccccn1 (stereo unspecified) the results were Vif TR-FRET 4%, Bfl-1 A1 inh 1.6, Ecoli growth 0.71, UCH37 inh 4.3, HNF4A DNA FP 5.7, LANA-H2B inh -0.4 and B2AR ag 7.
For CC(NC(=O)CC(c1ccccc1)c1cc(Cl)ccc1O)c1ccccc1 (stereo unspecified) the results were Vif TR-FRET -6%, Bfl-1 A1 inh -0.3, HNF4A DNA FP -4.6, LANA-H2B inh 9.0 and B2AR ag 7.
Screening COc1ccc(-c2cn(Cc3ccc(C(N)=O)cc3)c(-c3ccncc3)n2)cc1 returned Bfl-1 A1 inh -11, Ecoli growth 0.69, UCH37 inh -1.0, HNF4A DNA FP 0.0, LANA-H2B inh -2.9 and B2AR ag -5.
COC(=O)CN1C(=O)[C@H]2[C@@H](C3CC3)N3C(=O)CN(Cc4ccc(-c5ccccc5)cc4)C(=O)[C@@]3(Cc3ccccc3)[C@H]2C1=O was read as Bfl-1 A1 inh -2.6, UCH37 inh 5.2, HNF4A DNA FP 1.2, LANA-H2B inh 3.9 and B2AR ag -6.
For COc1ccc(CNC(=O)[C@@H](C)NC(=O)[C@@H]2Cc3ccccc3CN2)cc1 the results were Bfl-1 A1 inh -0.1, Ecoli growth 0.72, UCH37 inh 5.5, HNF4A DNA FP 5.1, LANA-H2B inh -4.0 and B2AR ag 3.
Screening CCOC(=O)c1ccc(N=Cc2cnc(N)nc2N)cc1 returned Vif TR-FRET -6%, HNF4A DNA FP -3.1 and B2AR ag 6.
O=C(COC(=O)c1ccc(Cl)c(S(=O)(=O)N2CCCC2)c1)NCc1cccs1 was read as Bfl-1 A1 inh 2.1, Ecoli growth 0.63, UCH37 inh 2.7, HNF4A DNA FP -0.6, LANA-H2B inh -1.8 and B2AR ag 2.
S=c1[nH]nc(C2(c3ccccc3)CCCC2)o1 was read as Vif TR-FRET inconclusive, Bfl-1 A1 inh 0.8, Ecoli growth 0.69, UCH37 inh 1.3, HNF4A DNA FP -3.7, LANA-H2B inh 5.6 and B2AR ag -4.
Screening CCOC(=O)c1c(C)c(C(=O)NCCCOC(C)C)c(C)n1C returned Vif TR-FRET 6%, Bfl-1 A1 inh -0.2, Ecoli growth 0.72, UCH37 inh -0.3, HNF4A DNA FP -0.3, LANA-H2B inh 0.1 and B2AR ag 0.
`CCN(CC)CCNS(=O)(=O)c1ccc(/C=C/C(=O)O)cc1` gave Vif TR-FRET 5%, Bfl-1 A1 inh -0.2, Ecoli growth 0.66, UCH37 inh 2.3, HNF4A DNA FP -2.2, LANA-H2B inh 1.4 and B2AR ag 0.
Screening COC(=O)C1=C(C)NC(=O)NC1C1CC=CCC1 (stereo unspecified) returned Vif TR-FRET -3%, Bfl-1 A1 inh -0.3, Ecoli growth 0.67, UCH37 inh 3.1, HNF4A DNA FP 2.8, LANA-H2B inh 3.7 and B2AR ag 1.
`COCCn1c(-c2ccc(Br)cc2)nc2oc3cc(OC)ccc3c(=O)c2c1=O` gave Vif TR-FRET 13%, Bfl-1 A1 inh 0.8, Ecoli growth 0.63, UCH37 inh 4.9, HNF4A DNA FP -2.1, LANA-H2B inh -1.6 and B2AR ag -8.
`CCCCNS(=O)(=O)c1ccc(Br)cc1N1CCC[C@H]1CO` gave Vif TR-FRET -3%, Ecoli growth 0.68, UCH37 inh -0.4, HNF4A DNA FP 0.3 and B2AR ag -5.
Cc1ccc(NC(=O)CSCC(=O)Nc2ccccc2N2CCCCC2)cc1 was read as Vif TR-FRET -2%, Bfl-1 A1 inh 0.0, Ecoli growth 0.62, UCH37 inh 1.6, HNF4A DNA FP 2.2, LANA-H2B inh -5.7 and B2AR ag -6.
`Nc1c(C(=O)c2cccs2)oc2ccccc12` gave Vif TR-FRET 1%, Bfl-1 A1 inh -0.4, Ecoli growth 0.68, UCH37 inh -6.5, HNF4A DNA FP 0.8, LANA-H2B inh 2.4 and B2AR ag -2.
CCN(CC)CCCN=C(N)N was read as Vif TR-FRET 8%, Bfl-1 A1 inh -0.6, Ecoli growth 0.7, UCH37 inh 1.4 and LANA-H2B inh 0.6.
`Cc1nc(Cc2nnc(SCC(=O)N(C)c3ccccc3)o2)cs1` gave Bfl-1 A1 inh 0.1, Ecoli growth 0.71, UCH37 inh 3.9, HNF4A DNA FP 2.2, LANA-H2B inh 1.7 and B2AR ag -5.
O=C(COc1ccccc1)Nc1ccncc1Cl was read as Vif TR-FRET -7%, Bfl-1 A1 inh -2.9, Ecoli growth 0.66, UCH37 inh 2.0, HNF4A DNA FP -4.9, LANA-H2B inh -1.8 and B2AR ag -3.
COc1ccc(NC(=O)CSc2nc(N)c(-c3ccccc3)c(=O)[nH]2)cc1 was read as Vif TR-FRET 18%, Bfl-1 A1 inh 0.0, Ecoli growth 0.72, UCH37 inh -1.1, HNF4A DNA FP -5.5, LANA-H2B inh 12* and B2AR ag -1.
